LASV entry inh: inhibitors of Lassa virus binding or cell entry | Lassa virus pseudotype entry inhibition, cell reporter; control for the full effect not named in the record | Potency, µM (doses to about 37.9 µM), for inactives: at the top dose activity change, negative = inhibition, usual class: inhibitors | actives 1.2% (n = 300,000) | AID 540256; active means well fitted inhibition curve with a large enough effect; inconclusive means small, poorly fitted or top-dose-only effect, or effect the other way; inactive means flat fitted curve, though single readings scatter; tested in HEK293 cells; also: % is scaled to controls: 0 for no effect and ±100 for the full control effect; nearly all actives have a fitted effect of over 50% in size; luciferase read-out
SARS PLP yeast: blocks SARS-CoV papain-like protease in a yeast assay; S. cerevisiae expressing SARS-CoV PLpro, growth rescue; control for the full effect not named in the record; Potency, µM (series often up to 32.9 µM), for inactives: top-dose activity, positive = growth rescue; actives 0.19% (n = 330,000); AID 485353; also: 0% is about no effect; nearly all actives have a fitted effect of over 55% in size; growth read by luminescence after 48 h
RE007 growth inh: less growth of the S. pombe RE007 Vpr strain. S. pombe RE007 Vpr strain, BacTiter-Glo ATP luminescence, 24 h; control for the full effect not named in the record. Potency, µM (doses to about 92.2 µM), without a hit: at the top dose activity change, negative = less growth. actives 0.21% (n = 360,000). AID 651644; active = well fitted falling curve with a large enough effect; inconclusive = small, poorly fitted or top-dose-only effect; inactive = no such curve, though single readings can be large or run the other way;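 also: % is scaled to controls: 0 for no effect and ±100 for the full control effect; nearly all actives have a fitted effect of over 50% in size; the assay follows cell death caused by Vpr and the record does not say whether a fall means rescue or toxicity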
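Fission yeast RE007 carrying one integrated HIV-1 vpr copy, seeded at OD 0.01 in PMG+AL medium with 23 nL pinned compound. Grown 24 h at 30 degrees; viability read by BacTiter-Glo luminescence after 5 min.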
Cruzain Triton: inhibitors of Trypanosoma cruzi cruzain with detergent; actives 0.43% (n = 200,000); purified cruzain, Z-FR-AMC fluorescence, 0.01% Triton; P25779; Potency, µM, without a hit: max response, negative = inhibition, most hits filed as inhibitors; active = well fitted curve in the direction sought with a large enough effect; inconclusive = small, poorly fitted or top-dose-only effect, or another doubt; inactive = no such curve, though single readings can be large; an effect the other way counts as inactive or inconclusive;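 also: plate controls were neutral wells for no effect and buffer without enzyme for full effect; nearly all actives have a fitted effect of over 40% in size; top concentration of the series not given in the record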
Target sequence (P25779 123-467 limits assumed): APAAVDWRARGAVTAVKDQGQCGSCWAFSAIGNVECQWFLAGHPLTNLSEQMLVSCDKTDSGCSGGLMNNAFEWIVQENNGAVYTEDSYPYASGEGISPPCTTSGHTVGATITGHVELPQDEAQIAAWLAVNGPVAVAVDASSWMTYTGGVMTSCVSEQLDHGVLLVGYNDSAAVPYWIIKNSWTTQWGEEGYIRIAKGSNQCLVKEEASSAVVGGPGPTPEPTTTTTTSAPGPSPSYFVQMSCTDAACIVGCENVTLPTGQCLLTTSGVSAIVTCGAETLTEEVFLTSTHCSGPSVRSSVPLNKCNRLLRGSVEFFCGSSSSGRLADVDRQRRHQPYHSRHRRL
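Cruzain (1.5 nM) preincubated 15 min at RT with compound in 100 mM sodium acetate pH 5.5, 5 mM DTT, 0.01% Triton X-100. Reaction started with 2 uM Z-FR-AMC; AMC fluorescence (ex 360/em 450 nm) change over 60 s gave rate.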
StopGo reporter: FMDV 2A StopGo reporter, luciferase signal; Potency, µM (top dose mostly 57.9 µM), for the others: at the top dose signal change, negative = less light; actives 1.2% (n = 410,000); human cells with a luciferase reporter of 2A StopGo recoding; control for the full effect not named in the record; active = well fitted falling curve with a large enough effect; inconclusive = small, poorly fitted or top-dose-only effect; inactive = no such curve, though single readings can be large or run the other way; tested in HEK293T cells; also: % is scaled to controls: 0 for no effect and ±100 for the full control effect; nearly all actives have a fitted effect of over 45% in size; luciferase light after 4 h
Cruzain inh noDet: inhibitors of Trypanosoma cruzi cruzain without detergent; P25779; purified cruzain, Z-FR-AMC fluorescence, no detergent; Potency, µM, for the others: max response, negative = inhibition, hits mostly inhibitors; actives 2.3% (n = 200,000); active = well fitted curve in the direction sought with a large enough effect; inconclusive = small, poorly fitted or top-dose-only effect, or another doubt; inactive = no such curve, though single readings can be large; an effect the other way counts as inactive or inconclusive;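 also: plate controls were enzyme without inhibitor for no effect and buffer without enzyme for full effect; nearly all actives have a fitted effect of over 40% in size; top concentration of the series not given in the record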
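Detergent-free condition (0.00005% Triton X-100) in acetate buffer pH 5.5 with DTT. 1.5 nM enzyme and compound were pre-mixed 15 min, then 2 uM Z-FR-AMC substrate added; reaction progress from fluorescence change between first and third reads (60 s).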
NS1 inh: inhibitors of influenza NS1 protein function; S. cerevisiae slowed by influenza A NS1, growth recovery by OD600; Potency, µM (titrated, usually from 46.1 µM), without a hit: at the top dose activity, positive = more growth; actives 0.4% (n = 270,000); also: actives are rising curves; nearly all actives have a fitted effect of over 50% in size
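S. cerevisiae expressing influenza A NS1, grown in glucose, washed, then diluted 1:100 into pH 6.0 -URA galactose medium with 23 nl compound. Growth recovery read as OD600; NS1-free strain serves as control.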
Marburg entry inh: blocks Marburg virus binding to or entry into cells; AID 540276; Potency, µM (series often up to 37.8 µM), for inactives: at the top dose activity change, negative = inhibition, most hits filed as inhibitors; Marburg virus pseudotyped entry inhibition, cell reporter; control for the full effect not named in the record; about a third of the inactives were read at about 46 µM; actives 1.8% (n = 300,000); active = well fitted inhibition curve with a large enough effect; inconclusive = small, poorly fitted or top-dose-only effect, or effect the other way; inactive = flat fitted curve, though single readings scatter; tested in HEK293 cells; about a fifth of its hits are not listed in these tables; also: % is scaled to controls: 0 for no effect and ±100 for the full control effect; luciferase read-out
Starred values were filed as active, the others as inactive; u = inconclusive; x = no result given; & = joins results of further samples; [ ] = remark or other dose. Unless noted, calls follow the shape of the dose curve; as a rule, active means well fitted rising curve with a large enough effect; inconclusive means small, poorly fitted or top-dose-only effect; inactive means no such curve, though single readings can be large or run the other way. Potency is read from the fitted curve at half-maximal effect.

SMILES	LASV entry inh	SARS PLP yeast	RE007 growth inh	Cruzain Triton	StopGo reporter	Cruzain inh noDet	NS1 inh	Marburg entry inh
Cc1cc2nc3n(c2cc1C)CC1CC(C(=O)NCc2ccco2)N(C)C31 (stereo not drawn)	x	6.5%	-15.4%	x	-6.3%	x	-4.7%	x
Cc1ccc(NC(=O)c2ccc3c(c2)N(CC(=O)N2CCCCC2)C(=O)C(C)(C)O3)cc1	5.0%	-2.5%	-9.9%	2.5%	-24.1%	u	-4.5%	-0.2%
Cc1onc(CO)c1C(=O)Nc1nccs1	0.2%[46.1 µM]	0.2%	2.0%	x	-12.4%	x	x	-4.4%[46.1 µM]
Cc1ccc(S(=O)(=O)Cn2nnnc2C(CC(C)C)N2CCN(C3CCCC3)CC2)cc1 (stereo not drawn)	8.6%	-14.4%	3.8%	x	-11.8%	x	-0.7%	u
CCCOc1cccc(C2C(C(=O)c3ccco3)=C(O)C(=O)N2CCCn2ccnc2)c1 (stereo not drawn)	x	-1.3%	2.2%	x	-22.1%	x	-2.6%	x
Cc1c(/C=N/NC(=O)c2cccnc2)c2ccccn2c1C(=O)c1ccc(F)cc1	0.3%	6.2%	x	-9.6%	x	u	10.0%	2.7%
Cc1nn(-c2ccc(F)cc2F)c2c1-c1nc(N3CCCC3)ncc1CC2	-6.7%	-8.4%	-3.8%	0.7%	-17.5%	2.6%	-11.1%	u
Cc1ccc(C(=O)/C=C/Nc2cccc([N+](=O)[O-])c2)o1	u	18.5%	-19.7%	-15.6%	0.0%	-5.4%	-13.0%	u
Cc1ccc(N2CC(O)Cn3c2nc2c3c(=O)n(C)c(=O)n2C)cc1 (stereo not drawn)	x	12.7%	10.0%	x	-14.9%	x	0.0%	x
CCOC(=O)c1ccc(NC(=O)C2C3C=CC(O3)C2C(=O)O)cc1 (stereo not drawn)	x	-9.3%	x	2.2%	x	9.2%	-10.1%	x
CCOc1ccc(NC(=O)C(C)Sc2nnc3cc(C)c4ccccc4n23)cc1 (stereo not drawn)	14.4%[46.1 µM]	x	x	-0.6%	-5.1%	7.2%	x	3.5%[46.1 µM]
O=C(NCc1cccc(F)c1)C1CCC(=O)N(CCc2cccc(F)c2)C1 (stereo not drawn)	x	-5.5%	-9.4%	x	6.4%	x	-7.6%	x
COc1cccc(N2CC(NC(=O)/C=C\c3ccccc3)CC2=O)c1 (stereo not drawn)	-0.9%[46.1 µM]	x	x	-1.6%	-9.0%	-6.0%	x	x
COc1cc(C(=O)N2CCN(C)C(C)C2)ccc1OC1CCN(C(C)=O)CC1 (stereo not drawn)	12.7%[46.1 µM]	-0.5%	-10.9%	x	4.5%	x	11.8%	u
CCOC(=O)COn1c(=O)c(-c2ccco2)[n+]([O-])c2ccccc21	11.2%	-0.5%	6.7%	-10.4%	2.9%	-7.1%	-3.7%	15.2%&15.2%
CCCN1C(=O)C(Cc2nc3ccccc3c(=O)n2-c2ccccc2)c2ccccc21 (stereo not drawn)	-6.3%	-8.1%	8.4%	-5.0%	-32.5%	9.8%	-5.2%	u
COc1cccc(OCCSc2nc3ccccc3n2CC(=O)N2CCOCC2)c1	3.0%[46.1 µM]	x	x	-3.3%	-8.7%	21.5%	x	-22.3%[46.1 µM]
COc1ccc2[nH]cc(C(=O)C(=O)N3CCCCC3)c2c1	x	u	13.2%	x	-18.7%	x	-2.2%	x
CC(=O)Nc1ccc(S(=O)(=O)Nc2cccc(-n3cnnn3)c2)cc1	13.8%[46.1 µM]	u	-14.7%	x	-1.2%	x	-2.5%	-29.4%[46.1 µM]
COc1ccc(CCNC(=O)Cc2cc(OCc3ccccc3)c(OC)cc2[N+](=O)[O-])cc1OC	-0.7%	0.2%	-5.9%	-3.1%	-24.8%	u	-9.9%	-10.2%
Cc1cc(=O)[nH]c(SCc2nnc(-c3ccccc3)o2)n1	29.2%	-2.5%	-5.2%	-0.7%	26.6%	-2.2%	-1.3%	22.3%
CCc1nn(CC(=O)NCCN2CCOCC2)c(=O)c2cc3c(OC)cccc3n12	x	5.9%	2.3%	x	-13.3%	x	-0.3%	x
COc1ccccc1/C=C/CN1CCC(Oc2ccc(C(=O)N3CCCCC3)cc2)CC1	-13.7%	25.0%	5.2%	x	11.0%	x	-11.9%	u
O=C(O)Cc1ccc(C(=O)CSc2ccccc2)s1	x	0.2%	-12.7%	x	-4.8%	x	0.1%	x
COCCn1c(SCC(=O)N2CCCc3ccccc32)nc2cccnc21	-0.1%	9.2%	14.8%	-5.7%	-18.5%	8.8%	-4.9%	-2.1%[46.1 µM]

Later entries:
SMILES	LASV entry inh	SARS PLP yeast	RE007 growth inh	Cruzain Triton	StopGo reporter	Cruzain inh noDet	NS1 inh	Marburg entry inh
CCCCOc1ccc(N2CC(C(=O)NCCc3ccc(OC)c(OC)c3)CC2=O)cc1 (stereo not drawn)	12.9%	0.4%	0.1%	x	-9.9%	x	x	u
CC(CC(=O)NNC(=O)c1ccncc1)c1ccccc1 (stereo not drawn)	-1.6%	2.1%	3.3%	x	36.1%[activator]	x	x	-6.6%[46.1 µM]
N#CNC(=Nc1cccc(F)c1)SCc1ccccc1	-0.9%	-6.6%	7.9%	-1.1%	-16.5%	-24.0%	-3.5%	-18.2%
COc1ccc2c(C(=O)CN3CCSCC3)c[nH]c2c1	16.7%	0.0%	-12.6%	x	50.4%[activator]	x	2.9%	u
O=C(O)CSCC(=O)Nc1ccc(Cl)cc1C(F)(F)F	-8.0%[46.1 µM]	-0.3%	4.2%	x	6.6%	x	0.0%	13.7%[46.1 µM]
CCc1nc(N[C@@H](Cc2c[nH]c3ccccc23)C(=O)O)c2oc3ccccc3c2n1	8.1%	2.6%	24.4%	-12.2%	12.0%	u	-12.8%	u
COC(=O)c1ccsc1NC(=O)CN1C(=O)CCC1=O	x	1.4%	-5.7%	x	-10.7%	x	1.4%	x
CCOC(=O)CSc1nc(N)c(C#N)c(-c2ccc(OC)cc2)c1C#N	-1.7%	u	-3.6%	2.1%	-15.7%	-6.6%	3.0%	-12.2%&-12.2%[46.1 µM]
Cc1cc(OCC(=O)c2ccc(C(F)(F)F)cc2)n2cnnc2n1	16.9%	2.6%	26.0%	x	-19.7%	x	3.6%	-9.8%
Cc1ccc2c(c1)C1(C(=O)N2)N2CCCC2C(C(=O)c2ccc3ccccc3c2)C12C(=O)Nc1ccccc12 (stereo not drawn)	14.9%	0.2%	36.6%	x	-5.4%	x	10.7%	u
O=CNC(n1cnc2c(N3CCOCC3)ncnc21)C(Cl)(Cl)Cl (stereo not drawn)	x	1.5%	-11.8%	x	-5.3%	x	-0.5%	x
COc1ccc(S(N)(=O)=O)cc1C(=O)OCC(=O)NC(C)(C#N)C1CC1 (stereo not drawn)	11.4%	4.4%	-13.0%	x	-23.4%	x	x	u
CCOc1ncccc1C(=O)Nc1cccc(-c2nc3cccnc3s2)c1	-13.6%	-2.4%	0.8%	x	-17.2%	x	-72.9%	-3.9%[46.1 µM]
CCc1cc2c(SCC(=O)Nc3cc(C)on3)ncnc2s1	7.5%	-3.4%	2.4%	x	-0.4%	x	5.5%	-9.6%[46.1 µM]
CCOCCCNC(=O)c1cccc(NC(=O)C2=C(C)OCCS2)c1	19.5%[46.1 µM]	0.9%	-11.2%	x	-1.0%	x	-3.1%	-6.9%[46.1 µM]
COC(=O)C1=CN(Cc2ccc(C)cc2)C=C(C(=O)OC)C1c1ccc(F)c(F)c1	u	-4.6%	1.6%	x	-26.7%	x	-8.0%	u
CN=C(SCC(=O)c1cccc(Cl)c1)c1c(O)n(C)c(=O)n(C)c1=O	u	0.3%	-2.2%	x	u	x	-6.0%	u
O=C(NC1CCCCCC1)c1cc(S(=O)(=O)N2CCOCC2)ccc1F	1.9%[46.1 µM]	-1.2%	13.5%	x	11.8%	x	-4.2%	-11.9%[46.1 µM]
Cc1cc(OC(=O)c2ccc(Cl)cc2)cc(=O)n1C	6.9%	-13.6%	u	0.3%	0.0%	1.1%	-90.8%	3.9%
COc1ccc(N(Cc2cc3cccc(C)c3[nH]c2=O)C(=O)C2CCCO2)cc1 (stereo not drawn)	x	-0.1%	-3.8%	x	-6.6%	x	0.2%	2.5%
O=C1c2ccccc2C(=O)N1CCSc1ccccc1	u	-0.6%	-15.6%	-7.6%	10.4%	-9.5%	-7.5%	u
COc1ccccc1OCc1csc(NC(=O)c2ccco2)n1	3.4%	-0.7%	-12.7%	-0.3%	-10.1%	-5.4%	-32.1%	-8.0%
COc1ccc(S(=O)(=O)N2CCC(C(=O)Nc3c(F)cccc3F)CC2)cc1	-3.6%	-0.3%	1.1%	-1.2%	0.0%	1.5%	4.8%	u
Cc1cccc(C(=O)N2CCN(C(=O)c3cccc(C)c3)C(C)C2)c1 (stereo not drawn)	0.4%	-1.2%	4.4%	-6.1%	-2.5%	-4.1%	-2.2%	1.1%
Cc1noc(/C=C/N(C)C)c1S(=O)(=O)N1CCCC(C(=O)Nc2cccc(F)c2)C1 (stereo not drawn)	17.3%[46.1 µM]	x	x	-5.2%	-19.5%	10.3%	x	-19.2%[46.1 µM]

(list continues)
SMILES	LASV entry inh	SARS PLP yeast	RE007 growth inh	Cruzain Triton	StopGo reporter	Cruzain inh noDet	NS1 inh	Marburg entry inh
CCC(C)(C)n1nnnc1C(c1ccccc1)N1CCN(Cc2ccccc2)CC1 (stereo not drawn)	1.5%[46.1 µM]	-0.4%	14.9%	x	-10.7%	x	-2.6%	1.5%[46.1 µM]
COc1ccccc1C(=O)N(Cc1ccco1)C1CCS(=O)(=O)C1 (stereo not drawn)	3.5%	10.7%	1.8%	1.7%	-22.0%	-11.7%	9.9%	4.0%
Cn1cccc1CC(=O)NNC(=O)Nc1ccc(F)cc1	15.0%	1.2%	-4.0%	-2.6%	21.6%	-5.4%	11.4%	-1.5%
Nc1ccc(-n2nncc2-c2ccc(Cl)cc2)cc1	-3.8%	-1.5%	1.0%	0.4%	-7.6%	-19.7%	5.3%	21.9%
O=C(CNC(=O)c1ccc(Br)o1)NCCc1ccc(F)cc1	10.4%[46.1 µM]	10.0%	-13.8%	x	16.3%	x	-0.5%	15.1%[46.1 µM]
Cc1nc(-c2ccccc2)sc1C(=O)/C=C/c1ccccc1	u	1.2%	-21.2%	-0.5%	-23.8%	3.7%	-79.4%	u
CCC(C(=O)Nc1nccs1)c1ccccc1 (stereo not drawn)	-1.3%	3.0%	3.9%	0.6%	-16.5%	-7.0%	u	-10.6%
COc1ccccc1N1C(N)=NC(N)=NC1(C)C	4.1%	0.1%	-5.4%&-23.2%	4.1%	-13.4%&-8.0%	3.2%	-1.1%	10.0%
Cc1cc(=O)[nH]c(SCc2cc(=O)n3nc(C)sc3n2)n1	x	-0.9%	-3.2%	0.7%	-15.2%	-13.4%	3.8%	x
